CDC25B-CDK2 inh – primary biochemical HTRF screen for blockers of M-phase inducer phosphatase 2 binding to CDK2/cyclin A; P30305+P24941; HTRF CDC25B-CDK2/CyclinA binding, anti-His/anti-Flag; stronger effect = higher value; z-score (test concentration not listed); hit rate 0.72% among 94,000; AID 1259370, 2018;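 also: score is relative to mean and SD of negative controls; strong numbers were not always called active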
HIV TAR-Tat – TAR RNA-Tat peptide displacers, HIV-1, primary screen, biochemical, FRET, FAM/TAMRA-labeled Tat | HIV-1 TAR RNA, Tat peptide displacement FRET; stronger effect = higher value | z-score (test concentration not listed) | hit rate 0.6% among 100,000 | AID 1259389, 2018;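 also: score is relative to mean and SD of negative controls; some compounds called inactive have numbers as strong as hits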
* hit, by the source's call; x = not tested or not shown.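 The calls were made as follows: active = z-score from 3 up in half or more of its runs; inactive = the rest.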

SMILES | CDC25B-CDK2 inh | HIV TAR-Tat
CCN1CC(=O)Nc2cc(S(=O)(=O)N(C)C)ccc21 | x | 2.1
CCCn1c2ccccc2c2cnn(CC(=O)Nc3nccs3)c(=O)c21 | x | 0.18
O=C(O)C1CCN(c2cnc3ccccc3n2)CC1 | x | -1.6
Cc1nc2cc3sc(C)nc3cc2s1 | -0.27 | x
N#Cc1ccc(NC(=O)c2ccco2)cc1 | 1 | x
Cn1nnc2c(NCc3ccc4c(c3)OCO4)ncnc21 | x | 1.1
Cc1nc(-c2csc(S(=O)(=O)NC3CC3)c2)no1 | x | 0.86
Cc1cccc(N2C(=O)N(c3ccc(Br)cc3)C3CS(=O)(=O)CC32)c1 (stereo unspecified) | -1.4 | 1.5
CCS(=O)(=O)N1CCN(Cc2nc3ccc(C)cc3o2)CC1 | x | 1.3
O=c1[nH]c(-c2cccc(Cl)c2)nc2ccccc12 | -0.64 | x
CCS(=O)(=O)N1CCCc2ccc(NS(=O)(=O)c3ccc4c(c3)OCCO4)cc21 | x | -0.98
Cc1nn(CCCC(=O)NCCN2CCCC2)c(=O)c2cc3occc3n12 | -0.68 | 1.3
CCc1nnc(SCC(=O)Nc2cc(Cl)c(OC)cc2OC)c2cc3occc3n12 | x | 5.1
COCc1cc(C)nc2sc3c(c12)NC(C)N(C1CCCCC1)C3=O (stereo unspecified) | -0.34 | 1
O=S(=O)(Cc1nn[nH]n1)c1ccccc1 | -0.46 | -0.11
COc1cc2c(cc1OC)n(CC(=O)NC1CCCc3ccccc31)n1c(C)cc(=O)nc21 (stereo unspecified) | -1.5 | 1.3
COC(=O)c1scc(C)c1NC(=O)/C(C#N)=C/c1ccc(C#N)cc1 | -2.6 | x
CCOCCCNC(=O)CCc1c(C)nc2c(c(C)nn2C)c1C | -1.2 | -0.24
CC(C)NC(=O)CNC(=O)C1(C)Cn2c(cc3ccccc32)C(=O)N1C (stereo unspecified) | x | -1.1
CCN(c1ncnc2c1cnn2-c1ccc(C)cc1)C1CCCCC1 | x | 1.6
C=CCN1C=C(OC(=O)c2ccc(F)cc2)c2ccccc2S1(=O)=O | -0.91 | 0.38
Cc1nc2ccccc2n1CC(O)COc1ccc(Cl)cc1 (stereo unspecified) | 0.32 | 0.23
COc1ccc(OCc2nc(C#N)c(NCCN3CCOCC3)o2)cc1 | 0.65 | -0.98
O=C(CSc1nnc(Cn2c(=O)sc3ccccc32)n1CCc1ccccc1)NC1CCCC1 | -0.14 | x
N=C1C(c2nc3ccccc3[nH]2)=C(O)CN1Cc1ccc(F)cc1 | -3 | -1.1
CCCCN(CCCC)S(=O)(=O)c1ccc(-c2ccc(=O)[nH]n2)s1 | x | -0.33
CCc1ccc(CN(C(=O)c2cc(-c3ccc(C)c(C)c3)on2)C2CCS(=O)(=O)C2)cc1 (stereo unspecified) | -0.72 | 1.2
O=C(O)c1cn2c3c(ccc(Cl)c3c1=O)OCC2 | x | 1.2
CC1(C)Cc2c(C#N)c(NC3CCCCC3)nc(-c3ccco3)c2CO1 | -0.97 | -1.5
Cc1noc(/C=C/N(C)C)c1S(=O)(=O)N1CCC(C(=O)N2CCCC2)CC1 | -0.89 | -3
Cc1ccc(S(=O)(=O)Nc2ccc(N3CCn4c(nc5ccccc54)C3)cc2C)cc1 | -1.1 | -0.97
Cc1c(C)n(-c2ccccc2)c2ncn(CC(=O)N3CCc4ccccc43)c(=O)c12 | x | 0.93
O=S(=O)(c1ccc(Br)cc1)N1CCN(Cc2ccccc2)CC1 | 0.4 | x
CC1(C(=O)NC2CCCCC2)Cn2c(cc3sccc32)C(=O)N1CCCN1CCCCC1 (stereo unspecified) | -0.33 | 1.5
CCc1c(C)nc2nncn2c1Nc1cccc(C)c1 | -2.3 | 0.94
O=C(Nc1ccccc1F)C1CCN(c2ccccc2)C1=O (stereo unspecified) | x | -0.24
CCC(C)(C(=O)NC1CCCC1)N(C(=O)Cc1cccs1)c1c(C)n(C)n(-c2ccccc2)c1=O (stereo unspecified) | -0.69 | 2.3
CN(N)C(=S)NC(C)(C)C | -0.18 | x
O=C1CCCC2=C1C(c1cccs1)N(C(=O)CCC(=O)N1CCOCC1)c1ccccc1N2 (stereo unspecified) | x | 0.78
Cn1c(-c2ccccc2)cc(=O)c2ccccc21 | x | 0.12
CCCN1CNC(=S)N(c2cccc(C)c2C)C1 | 0.9 | x
Cc1cc([N+](=O)[O-])nn1CC(=O)Nc1sc2c(c1C(=O)OC(C)C)CCCC2 | x | 2.7
O=C(CN1c2ccccc2NC2=C(C(=O)CCC2)C1c1cccs1)NCC1CCCO1 (stereo unspecified) | x | 2.9
CC(Oc1ccccc1F)C(=O)Oc1cccc(-n2cnnn2)c1 (stereo unspecified) | -1.1 | -0.1
COc1cc([C@@H]2c3cc4c(cc3[C@H](O)C3COC(=O)[C@@H]32)OCO4)cc(OC)c1OC (stereo partly specified) | -2 | 2.1
Cc1cc(-c2ccc(C)c(S(=O)(=O)N(Cc3ccco3)C(C)c3ccccc3)c2)on1 (stereo unspecified) | x | 2.1
COc1ccc(Cc2nc(-c3ccc(Cl)cc3)cs2)cc1 | -1 | x
CCOC(=O)c1c(C)oc2ncnc(NCCCN3C(C)CCCC3C)c12 (stereo unspecified) | x | 0.69
CCOC(=O)c1c(NC(=O)C(C)C)sc2c1CCC2 | -0.96 | 1.1
CCc1nn(CC(=O)NCc2ccc(Cl)cc2)c(=O)c2cc3sccc3n12 | -7.3 | x
CN(C)CCCN(C(=O)CCSc1ccccc1)c1nc2ccc(F)cc2s1 | x | 0.59
CCc1ccc(CN(C)CCc2ccccn2)cc1 | 0.76 | -0.7
Cc1nnc2sc(-c3cccnc3)nn12 | -1 | 1.9
CCn1cc2nc(SCc3ccc(C)cc3)n(Cc3ccccc3)c(=O)c2n1 | x | 1
COC(=O)c1ccc(C(=O)OC)c(NC(=O)c2cnc3sccn3c2=O)c1 | -2.3 | x
Cc1ccc(N2C(=O)c3cccnc3C2Nc2cc(Cl)ccc2C)cc1 (stereo unspecified) | x | 1.1
Cc1cc(NC(=O)c2nn(C)c3c2CSc2ccccc2-3)no1 | 0.11 | 2
COC(=O)c1cc(S(=O)(=O)Nc2ccc3c(c2)OCCO3)c[nH]1 | x | -0.13
O=C1COc2cc(S(=O)(=O)NCc3ccc4c(c3)OCO4)c(Cl)cc2N1 | x | 0.04
C=CCOc1cc(C2CC(=O)Nc3c2c(C)nn3-c2nncc(-c3ccc(OC)cc3)n2)ccc1OC (stereo unspecified) | x | 1.4

More structures
SMILES | CDC25B-CDK2 inh | HIV TAR-Tat
O=C1CN(c2nc3ccc(Cl)cc3n3cnnc23)CC(=O)N1CCc1ccccc1 | 0.53 | 1.8
CC(=O)N1c2ccccc2CC1C(=O)N1CCN(c2ccccn2)CC1 (stereo unspecified) | x | 1.9
COc1cccc(C2Nc3ccccc3-c3nnc(SC)nc3O2)c1 (stereo unspecified) | -0.42 | -0.38
O=C1CCSc2ccc(S(=O)(=O)NCc3cccc(Br)c3)cc2N1 | x | 1.1
Cc1cc(C)c(OCC(=O)N(Cc2sccc2C)C2CCS(=O)(=O)C2)c(C)c1 (stereo unspecified) | -0.16 | 0.04
COC(=O)c1cc(-c2ccc(OC)cc2)on1 | -2.2 | -1.1
CC1(C)CC(=O)C2=C(C1)Nc1ncnn1C2c1ccc(C(F)(F)F)cc1 (stereo unspecified) | 1.2 | x
CCc1cccc(-n2nnc(-c3nc(-c4ccccc4F)no3)c2N)c1 | x | 0.55
CN(C)CCCN(C(=O)c1nc2ccccc2s1)c1nc2ccc(F)cc2s1 | x | 0.33
O=C(CSc1ccc2nc(-c3ccccc3)cn2n1)NC1CCCC1 | x | -0.38
CC(Sc1nc2c(c(=O)[nH]1)CCCC2)C(=O)Nc1ccc(Br)cc1 (stereo unspecified) | -1.9 | 13*
O=C1c2cccnc2C(=O)N1Cc1ccc(F)cc1S(=O)(=O)N1CCCC1 | x | -0.77
CCOC(=O)/C=C/C(=O)Nc1nc(-c2ccc3ccccc3c2)cs1 | -4.3 | x
CCCNC(=O)Cn1c(=O)oc2cc(S(=O)(=O)N3CCCC3)ccc21 | 0.02 | 1.3
CCOC(=O)/C(=C\c1ccc([N+](=O)[O-])cc1)[N+](=O)[O-] | -1.5 | x
O=C1CC(c2ccc(F)cc2)Cc2nc(NC3CCCC3)ncc21 (stereo unspecified) | 0.3 | 0.74
CCCNC(=O)NC1=C(C#N)C(CC)(CC)Cc2ccccc21 | -0.93 | 1.3
Cc1cc(C)c(-c2c(N3CCc4ccccc4C3)c(=O)c2=O)cc1C | x | -3.3
Cc1ccc(-c2nc3c(c(SCC(N)=O)n2)Cc2cccc(C)c2O3)cc1 | -0.17 | 0.62
Cn1nc(C(=O)N2CCN(C(=O)c3ccco3)CC2)c2c1-c1ccccc1OC2 | -0.28 | 1.4

3 compounds from above, arranged by formula weight, highest first.
SMILES | CDC25B-CDK2 inh | HIV TAR-Tat
CC(Sc1nc2c(c(=O)[nH]1)CCCC2)C(=O)Nc1ccc(Br)cc1 (stereo unspecified) | -1.9 | 13*
Cc1ccc(-c2nc3c(c(SCC(N)=O)n2)Cc2cccc(C)c2O3)cc1 | -0.17 | 0.62
CCCNC(=O)NC1=C(C#N)C(CC)(CC)Cc2ccccc21 | -0.93 | 1.3

New compounds follow.
SMILES | CDC25B-CDK2 inh | HIV TAR-Tat
CN1CCN(C(=O)N2c3ccccc3Sc3ccccc32)CC1 | -0.42 | 2.3
O=C1c2cccc3cc(Br)cc(c23)C(=O)N1CCO | -3.1 | 0.02
O=C(O)CN1C(=O)C2CCCCN2C(=O)c2ccccc21 (stereo unspecified) | x | 0.85
Cc1nc2ccccc2n1Cc1ccc(Cl)cc1 | -0.89 | 1.2
CCCCOC(=O)C1=C(C)NC2=C(C(=O)CCC2)C1c1ccccc1 (stereo unspecified) | -0.87 | -0.73
COc1ccc(-n2cc[nH]c(=S)c2=O)cc1Cl | -1.1 | 3.2
N#Cc1ccc(C2SCCCS2)cc1 | -0.45 | x
O=C(Nc1nccs1)C1CCN(c2ncnc3c2nc2n3CCCCC2)CC1 | x | -0.4
CC1=C(c2ccc(C(C)C)cc2)S(=O)(=O)NC1=NCCC(C)C | -1.1 | -1
O=C(O)Cn1nc(-c2ccccc2)ccc1=O | x | 1.4
Cc1ccc(-c2cnc(C3CC3)o2)cc1S(=O)(=O)N1CCCC1 | x | -0.17
O=C(Cc1cccs1)N(c1ccccc1)C1C=CS(=O)(=O)C1 (stereo unspecified) | -1.7 | -0.56
O=C1NC(=O)c2cc(NS(=O)(=O)c3ccc(F)cc3)ccc21 | 1 | 0.81
O=S(=O)(c1cccc2nsnc12)N1CCCC1c1ccco1 (stereo unspecified) | -1.7 | 1.1
c1ccc(-c2noc(CSc3nnc(-c4cccs4)n3-c3ccccc3)n2)cc1 | -1.7 | 2.2
Cc1ccc(C2=NS(=O)(=O)N(C)C(C(=O)Nc3ccc4c(c3)OCO4)=C2)cc1 | -1.3 | 1.4
COc1ccc(S(=O)(=O)Nc2cc(N3CCCS3(=O)=O)ccc2OC)cc1 | x | -0.51
c1ccc(C(Nc2ncnc3c2cnn3-c2ccccc2)c2ccccc2)cc1 | x | 1.1
CSC(=NS(=O)(=O)c1cc(OCC(F)(F)F)ccc1OCC(F)(F)F)SC | 0.15 | x
Cc1ccc(-n2ncc3c(NCc4ccc5c(c4)OCO5)ncnc32)cc1 | x | 2.5
CS(=O)(=O)n1nc(-c2cccnc2)nc1NCc1ccco1 | -1.4 | 0.62
COc1ccc(C2Oc3ccccc3C3CC(c4ccccc4O)=NN32)c(OC)c1 (stereo unspecified) | -0.29 | -2.4
Cc1nnsc1-c1nc(-c2ccc(F)cc2)cs1 | -0.89 | x
CCOc1ccc(C2c3c(oc4ccc(F)cc4c3=O)C(=O)N2CC2CCCO2)cc1OC (stereo unspecified) | -1.1 | 2.6
O=C(Cn1cnc2c(oc3nc4c(cc32)CCCC4)c1=O)N1CCCC1 | x | 0.15
Cc1ccc2oc3c(c(=O)c2c1)C(c1ccc(F)cc1)N(c1nccs1)C3=O (stereo unspecified) | -2.1 | -1
Cc1cc2c(ccc3nonc32)o1 | -2.1 | x
O=C(OCC1CCCO1)c1sc2ccccc2c1Cl (stereo unspecified) | x | -0.98
Cc1c(C(=O)N2CCCCC2)c(S(=O)(=O)N2CCN(C3CCCCC3)CC2)c(C)n1C | x | 0.57
CC(=O)N1CCc2cc(Br)cc(S(=O)(=O)N3CCCC3c3cc(C)no3)c21 (stereo unspecified) | x | 0.84

In the list so far, 15 contain fluorine.
SMILES | CDC25B-CDK2 inh | HIV TAR-Tat
C=CCN1C=C(OC(=O)c2ccc(F)cc2)c2ccccc2S1(=O)=O | -0.91 | 0.38
N=C1C(c2nc3ccccc3[nH]2)=C(O)CN1Cc1ccc(F)cc1 | -3 | -1.1
O=C(Nc1ccccc1F)C1CCN(c2ccccc2)C1=O (stereo unspecified) | x | -0.24
CC(Oc1ccccc1F)C(=O)Oc1cccc(-n2cnnn2)c1 (stereo unspecified) | -1.1 | -0.1
CN(C)CCCN(C(=O)CCSc1ccccc1)c1nc2ccc(F)cc2s1 | x | 0.59
CC1(C)CC(=O)C2=C(C1)Nc1ncnn1C2c1ccc(C(F)(F)F)cc1 (stereo unspecified) | 1.2 | x
CCc1cccc(-n2nnc(-c3nc(-c4ccccc4F)no3)c2N)c1 | x | 0.55
CN(C)CCCN(C(=O)c1nc2ccccc2s1)c1nc2ccc(F)cc2s1 | x | 0.33
O=C1c2cccnc2C(=O)N1Cc1ccc(F)cc1S(=O)(=O)N1CCCC1 | x | -0.77
O=C1CC(c2ccc(F)cc2)Cc2nc(NC3CCCC3)ncc21 (stereo unspecified) | 0.3 | 0.74
O=C1NC(=O)c2cc(NS(=O)(=O)c3ccc(F)cc3)ccc21 | 1 | 0.81
CSC(=NS(=O)(=O)c1cc(OCC(F)(F)F)ccc1OCC(F)(F)F)SC | 0.15 | x
Cc1nnsc1-c1nc(-c2ccc(F)cc2)cs1 | -0.89 | x
CCOc1ccc(C2c3c(oc4ccc(F)cc4c3=O)C(=O)N2CC2CCCO2)cc1OC (stereo unspecified) | -1.1 | 2.6
Cc1ccc2oc3c(c(=O)c2c1)C(c1ccc(F)cc1)N(c1nccs1)C3=O (stereo unspecified) | -2.1 | -1

Bioassay records: PubChem BioAssay, Center for Chemical Genomics, University of Michigan
